Screening results as filed in PubChem.
Bfl-1 A1 inh: inhibitors of the anti-apoptotic protein A1, read as caspase activation; MEF A1-2A-BIM cells, Caspase-Glo 3/7 luminescence, 3 h; percent of clofoctol response, vehicle zero; caspase activation, % (test concentration not listed); hit rate 0.066% among 330,000;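 active means over half of replicate activation scores above 10%, or exactly half above 10 with the replicate mean above 10; inconclusive means replicate mean below 10 yet half the replicates above 10; inactive means over half of replicates below 10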;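 further: wells of about 30 µL received 50 nL stock; many hits fall short of the cut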
E coli growth: inhibitors of Escherichia coli growth; OD600 absorbance (no concentration beside the values); OD600, 23 h; hits give low values; hit rate 0.21% among 330,000;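 active means OD600 absorbance below the run mean of sample wells minus 3.6 SD, in any replicate, cut at about 0.56 in these data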;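 further: stock transfer was 300 nL into about 60 µL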
Ecoli rRNA inh: inhibitors of bacterial rRNA selective over humanized ribosomes; E. coli WT GFP vs humanized-ribosome RFP mutants, fluorescence, 24 h; hits give low values; DMSO median 0, no signal -100; GFP signal change (wild-type ribosome), % (concentration not given with the values); hit rate 1.6% among 350,000; AID 720706;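 active means significant combined selectivity score with lowered wild-type GFP, culture density cut under 30%, mutant RFP and density less affected; inactive means any of these conditions unmet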; further: one replicate is shown; some compounds called inactive have numbers as strong as hits
UCH37 DUB inh: human UCH37 deubiquitinating enzyme inhibition. purified proteasome/UCH37, Ub-AMC cleavage fluorescence. inhibition, % (test concentration not listed). Q9Y5K5. hit rate 0.33% among 330,000. AID 588478;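 active means mean of two replicates above 20%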;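 further: 0% = compound-free wells with enzyme and 100% = wells lacking proteasome; stock transfer was 100 nL into about 20 µL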
Target sequence (Q9Y5K5 whole entry, looked up): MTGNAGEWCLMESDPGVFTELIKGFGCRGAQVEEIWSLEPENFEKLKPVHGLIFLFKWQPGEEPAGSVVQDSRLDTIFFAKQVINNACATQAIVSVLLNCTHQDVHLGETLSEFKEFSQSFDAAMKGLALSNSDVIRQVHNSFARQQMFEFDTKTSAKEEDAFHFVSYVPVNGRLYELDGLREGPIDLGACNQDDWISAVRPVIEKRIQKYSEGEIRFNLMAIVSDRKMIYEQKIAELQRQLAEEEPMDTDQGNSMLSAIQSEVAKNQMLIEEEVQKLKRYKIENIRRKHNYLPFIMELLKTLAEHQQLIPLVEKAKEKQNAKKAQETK
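Material: Human UCH37 enzyme supplied as purified proteasome complex | Schedule: 30 min preincubation with enzyme, 25 min cleavage at room temperature | Detection: AMC fluorescence 355/460 nm | Measure: % inhibition of Ub-AMC cleavage fluorescence | Controls: Wells without proteasome as full block, compound-free enzyme plus substrate as uninhibited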
Beta cell apopt: blocks beta cell apoptosis; AID 435005; hit rate 0.8% among 300,000; INS-1E cytokine-induced death, ATP luminescence, 48 h; percent of positive-control rescue, neutral wells zero; protection from apoptosis, % (no concentration beside the values);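 active means all replicates at 75% or more, or half of them and the mean; inconclusive means half reach 75% but not the mean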;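 further: 0% = cytokine-treated negative control wells and 100% = positive control rescue; higher means more ATP so stronger rescue from cytokine killing; wells of about 40 µL received 100 nL stock; the first replicate is given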
T cruzi repl: T. cruzi replication inhibition; AID 1885; T. cruzi beta-gal in NIH3T3, luminescence, 90 h; hit rate 1.4% among 300,000; inhibition, % (test concentration not listed);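 active means mean inhibition across valid replicates above about 55%, limit read from the data; inconclusive means mean below that limit but half or more replicates reach it; inactive means mean below it, under half of replicates reach it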;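 further: signal also drops with host cell toxicity which is not excluded here; 0% = plate median of DMSO wells and 100% = zero luminescence signal; higher percent means less beta-gal luminescence so fewer parasites; stock transfer was 50 nL into about 50 µL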
FGF22 binding: shifts melting point of recombinant human FGF22; Q9HCT0; recombinant FGF22 thermal shift, SYPRO orange fluorescence; percent of sucrose octasulfate shift, DMSO zero; calls only at 9.99 µM; hit rate 1.5% among 340,000; AID 651658;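 active means melting point raised past a set limit in the mean and every replicate; inconclusive means no clear call; three in four hits are not shown here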
Target sequence (Q9HCT0 whole entry, looked up): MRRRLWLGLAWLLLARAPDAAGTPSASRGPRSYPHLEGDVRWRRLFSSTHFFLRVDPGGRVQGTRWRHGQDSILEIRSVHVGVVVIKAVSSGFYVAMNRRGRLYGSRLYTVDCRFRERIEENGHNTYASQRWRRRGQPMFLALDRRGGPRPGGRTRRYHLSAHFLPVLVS
MLL AF4-AF9 inh: inhibitors of human MLL-AF4/AF9 interaction; P42568; inhibition, % at 10 µM; hit rate 0.47% among 350,000; AID 651704; AlphaScreen, biotin-AF4 peptide binding to FLAG-AF9;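 active means every replicate reaching a set inhibition limit, whatever the replicate mean, cut at about 25% in these data; inconclusive means mean inhibition reaches that limit but some replicates miss it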;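 further: 0% = plate neutral control median and 100% = total signal loss; the record names both 10 and 1 µM as test concentration; the first replicate is given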
Target sequence (P42568 whole entry, looked up): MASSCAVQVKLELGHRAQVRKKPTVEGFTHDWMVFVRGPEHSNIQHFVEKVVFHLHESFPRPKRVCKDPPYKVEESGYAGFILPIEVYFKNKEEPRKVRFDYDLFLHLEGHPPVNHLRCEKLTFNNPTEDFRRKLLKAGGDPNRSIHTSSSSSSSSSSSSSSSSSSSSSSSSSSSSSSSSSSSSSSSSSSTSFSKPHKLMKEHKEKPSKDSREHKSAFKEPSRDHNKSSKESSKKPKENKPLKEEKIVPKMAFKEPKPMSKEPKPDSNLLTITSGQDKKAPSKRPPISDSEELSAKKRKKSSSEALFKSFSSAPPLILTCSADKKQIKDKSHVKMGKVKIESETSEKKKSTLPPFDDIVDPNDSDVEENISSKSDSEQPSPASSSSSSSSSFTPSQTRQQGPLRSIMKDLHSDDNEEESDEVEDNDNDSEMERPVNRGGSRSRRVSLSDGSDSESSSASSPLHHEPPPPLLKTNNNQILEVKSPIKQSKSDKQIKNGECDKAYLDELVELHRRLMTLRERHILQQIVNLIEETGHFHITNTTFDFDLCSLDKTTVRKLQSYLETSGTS
Ecoli rRNA inh OD600: second read-out of Ecoli rRNA inh, no call of its own (marks repeat the call); OD600 change, %; measured here: OD600 growth;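 optical density of the mix in the first replicate; 0 = DMSO median and -100 = no signal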
Ecoli rRNA inh RFP: recorded beside Ecoli rRNA inh, whose call it bears; RFP signal change, %; measured here: RFP humanized mutant strains;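 first replicate; 0 = DMSO median and -100 = no signal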
* = called active by the depositor; i = inactive; ? = inconclusive; · = not tested or not shown; & = joins results of further samples.

SMILES | Bfl-1 A1 inh | E coli growth | Ecoli rRNA inh | Ecoli rRNA inh OD600 | Ecoli rRNA inh RFP | UCH37 DUB inh | Beta cell apopt | T cruzi repl | FGF22 binding | MLL AF4-AF9 inh
Cc1ccc([N+](=O)[O-])cc1NC(=O)CNC1CCCCC1 | -0.1 | 0.62 | 7 | -3 | 3.0 | 4.8 | 1 | 15 | i | 1.6
CC(OC(=O)c1cc[n+]([O-])cc1)C(=O)NCc1ccccc1 (stereo not given) | 0.0 | 0.65 | 8 | 8 | -0.4 | 3.1 | · | 6 | · | 0.6
COC(=O)CSc1nc2sc3c(c2c(=O)n1-c1ccc(OC)cc1)CCN(C)C3 | · | 0.67 | 10 | 11 | 3.3 | 3.0 | · | 10 | i | -1.4
COc1ccccc1CNC(=O)c1cnn2c(C(F)F)cc(C)nc12 | 0.3 | 0.74 | · | · | · | -2.4 | 3 | 10 | · | ·
O=C(NN1C(=O)C2C(C1=O)C1C=CC2C12CC2)c1ccncc1 (stereo not given) | 0.0 | 0.77 | · | · | · | 1.3 | 3 | 3 | · | ·
COc1ccsc1NC(=O)OCc1ccc(Cl)cc1 | -8.5 | 0.58 | -4 | -1 | 0.9 | 0.6 | -2 | -2 | i | 4.8
CCCN(CC(=O)Nc1ccccc1Br)CC(=O)Nc1ccc(F)c(F)c1F | 0.6 | 0.69 | · | · | · | 4.6 | 9 | 10 | · | ·
CCCC(=O)N(CCN1CCOCC1)c1nc2ccc(OCC)cc2s1 | -0.8 | 0.66 | 0 | -4 | -2.3 | 1.6 | 2 | 5 | i | -1.5
COc1ccc(-c2nc3cccc(C)n3c2NCC2CCCO2)cc1O (stereo not given) | -0.8 | 0.7 | -1 | -2 | -3.1 | i | 0 | -11 | i | -4.6
COc1ccc(S(=O)(=O)Nc2ccc3c(c2)C(=O)N([C@H](C)CO)C[C@H](C)[C@@H](CN(C)C(=O)Nc2ccccc2)O3)cc1 | 0.9 | 0.78 | 2&-1 | 12&4 | -4.0&-0.5 | 6.2 | -1 | · | i | -2.1
O=S(=O)(Cc1ccccc1)N1CCN(C/C=C/c2ccccc2)CC1 | -0.5 | 0.68 | · | · | · | -1.1 | -3 | 15 | · | ·
CCOc1ccc(S(=O)(=O)Nc2cccc(C(=O)N3CC(C)OC(C)C3)c2)cc1 (stereo not given) | 0.4 | 0.62 | -4 | -1 | 0.7 | 3.1 | · | 8 | i | 5.4
Cc1cccc(NC(=O)CSc2nc3[nH]ncc3c(=O)n2-c2ccccc2)c1 | -0.5 | 0.68 | · | · | · | 0.0 | -7 | -4 | · | ·
O=C(O)c1cc(-c2c[nH]c3ccccc23)nc2ccc3ccccc3c12 | -0.5 | · | -3 | 1 | -1.4 | · | -1 | 9 | · | 0.4
c1ccc(N2CCN(C3CCSC3)CC2)cc1 (stereo not given) | 0.5 | 0.67 | 9 | 5 | -5.3 | 3.4 | -9 | -12 | · | -5.6
COCCSc1nnc(NC(=O)Cc2ccc(OC)cc2)s1 | 0.6 | 0.68 | 5 | 2 | -0.8 | 0.1 | -6 | -5 | i | -3.5
O=C(CSc1nnc(NC(=O)c2ccco2)s1)Nc1ccccc1 | 1.1 | 0.61 | -2 | -5 | -4.2 | 6.6 | 5 | -2 | i | -0.3
COC(C(=O)NNS(=O)(=O)c1ccccc1[N+](=O)[O-])c1ccccc1 (stereo not given) | · | 0.7 | · | · | · | 2.0 | · | -6 | i | -0.8
Nc1nc(SCC(=O)NCC2CCCO2)n[nH]1 (stereo not given) | 0.4 | 0.7 | · | · | · | -0.4 | 2 | 9 | · | ·
CCOC(=O)c1[nH]c2ccc(OC)cc2c1NC(=O)c1ccc(OC)c(OC)c1 | -1.0 | 0.68 | · | · | · | -8.7 | 4 | 9 | · | ·
Cc1cccc(Nc2nc(N3CCOCC3)nc(N3CCOCC3)n2)c1 | 1.1 | 0.69 | -21 | -19 | -2.8 | 5.7 | 2 | 56* | i | 2.8
O=C1/C(=C/c2ccncc2)SC(=S)N1C1CCCCC1 | 0.3 | 0.74 | · | · | · | 8.0 | -1 | -24 | · | ·
CCCC1(CCC)NC(=O)N(CC(=O)N2CCN(C(=O)c3ccco3)CC2)C1=O | 0.6 | 0.74 | · | · | · | 5.3 | -4 | -15 | · | ·
O=C(NCc1ccccc1C(F)(F)F)C1CC(c2cc(C(F)(F)F)cc(C(F)(F)F)c2)=NO1 (stereo not given) | 0.8 | 0.69 | -3 | -2 | -0.2 | 0.7 | 2 | 7 | i | 1.8
COc1ccc(/C=C(\CC(=O)O)c2nc3ccccc3s2)cc1O | -1.3 | 0.68 | -25* | 11* | -2.9* | -1.8 | -6 | -15 | i | 0.8
Nc1ncc([N+](=O)[O-])cc1Br | 0.7 | 0.67 | 14 | -6 | 39 | 14 | -5 | 6 | i | -7.1
CC(=O)c1ccc(OCC(O)CN2CCOCC2)cc1 (stereo not given) | -0.8 | 0.8 | · | · | · | -0.7 | 1 | 4 | · | ·
COCCOC(=O)c1c(NC(=O)CNCc2ccco2)sc(C(N)=O)c1C | 0.3 | 0.68 | 7 | 3 | 4.3 | -0.9 | -7 | 16 | i | 0.5
Cc1ccc2c(CC(=O)NC3=NCCS3)coc2c1 | -0.4 | 0.69 | · | · | · | -0.9 | -23 | -17 | · | ·
CC(=O)c1cn(CC(=O)NCc2cccnc2)c2ccccc12 | 1.4 | 0.66 | · | · | · | 1.5 | -1 | -19 | · | ·
C=CCn1c(SCC(=O)c2ccc(O)c(O)c2)nnc1-c1cccc(OC)c1 | -0.1 | · | -7 | -2 | 1.5 | · | -8 | · | i | -24
Cc1c(NC(=O)COC(=O)/C=C/c2cccc(Br)c2)c(=O)n(-c2ccccc2)n1C | -0.8 | 0.66 | 1 | -6 | -1.0 | 3.6 | -2 | · | i | 1.7
O=C(CCC(=O)OCC(=O)c1ccc(Br)cc1)Nc1cccc2cccnc12 | -0.6 | 0.71 | · | · | · | 1.4 | -3 | -19 | · | ·
COC(=O)c1ccc(N2CCN(CCNC(=O)Nc3ccc(OC)cc3)CC2)cc1 | -0.5 | 0.67 | 6 | 12 | 0.0 | 3.0 | -3 | 1 | i | -0.5
Cc1ccc(S(=O)(=O)N2CCCCC2)cc1NC(=O)Cc1cccs1 | 1.2 | 0.72 | -9 | -4 | 6.0 | 2.0 | 5 | · | i | 0.8
O=C(NCc1ccccn1)C(=O)N/N=C/c1ccccc1O | -0.3 | · | 8 | 0 | 6.5 | · | -5 | 1 | i | -67
CC(=O)N/C(=C\c1ccc(C)cc1)C(=O)O | 0.0 | 0.72 | 11 | 14 | 1.3 | 3.4 | 0 | -6 | i | -2.0
CCOC(=O)c1nn(-c2ccccc2)c(=O)cc1OCC(=O)Nc1ccccc1OCC | 0.6 | 0.69 | 10 | 13 | 0.1 | -21 | 5 | -11 | i | -2.3
Cc1ccc(Nc2c(-c3ccc(N4CCOCC4)cc3)nc3ncccn23)cc1C | -0.5 | 0.73 | -2 | -8 | 0.2 | -29 | -8 | 13 | i | -5.4
Cc1cc(C)nc(N2N=C(C(F)(F)F)CC2=O)n1 | -0.1 | 0.7 | 19 | 10 | -1.9 | -0.3 | -2 | -3 | i | ·

Next section; it opens with the 2 that closed the last part.
SMILES | Bfl-1 A1 inh | E coli growth | Ecoli rRNA inh | Ecoli rRNA inh OD600 | Ecoli rRNA inh RFP | UCH37 DUB inh | Beta cell apopt | T cruzi repl | FGF22 binding | MLL AF4-AF9 inh
Cc1ccc(Nc2c(-c3ccc(N4CCOCC4)cc3)nc3ncccn23)cc1C | -0.5 | 0.73 | -2 | -8 | 0.2 | -29 | -8 | 13 | i | -5.4
Cc1cc(C)nc(N2N=C(C(F)(F)F)CC2=O)n1 | -0.1 | 0.7 | 19 | 10 | -1.9 | -0.3 | -2 | -3 | i | ·
CC(=O)N/C(=N\OCc1ccccc1Cl)c1nonc1NC(C)=O | -0.1 | · | 9 | 13 | -1.5 | · | 6 | 2 | i | 1.3
CC1CCc2sc(C(=O)N(C)CC(=O)Nc3cccc(F)c3)cc2C1 (stereo not given) | -0.5 | 0.69 | -21 | -55 | 6.1 | 2.7 | · | -5 | i | -6.1
CCCCN(CCCC)CCC(O)c1cc2c(Cl)cc(Cl)cc2c2cc(C(F)(F)F)ccc12 (stereo not given) | -1.3 | 0.71 | · | · | · | -2.2 | 22 | · | i | -6.2
CCN(Cc1ccccc1)C(=O)c1c[nH]c2ccc(S(=O)(=O)N(C)CCC#N)cc2c1=O | 0.6 | 0.63 | · | · | · | -36 | -10 | 3 | · | ·
COc1ccc(N2CCN(C(=O)c3ccc4c(c3)CC(c3ccccc3)OC4=O)CC2)cc1 (stereo not given) | · | 0.68 | 2 | -4 | 0.4 | 5.5 | · | · | i | ?
CN(c1ccccc1C(=O)N1CCc2ccccc2C1)S(C)(=O)=O | 1.6 | 0.73 | · | · | · | 4.0 | -19 | -36 | · | ·
O=S(=O)(c1ccccc1)c1cnc2ccccc2c1 | 0.4 | 0.7 | -7 | -4 | -2.7 | -0.8 | 2 | -18 | i | -0.4
COc1cccc(CN2CCN(C3CCN(c4cccc(C)c4C)CC3)CC2CCO)c1 (stereo not given) | 0.4 | 0.68 | -4 | -8 | 22 | 3.6 | 1 | 27 | i | -4.8
N#C/C(=C\c1cccc(OCC(=O)O)c1)c1nc2ccccc2[nH]1 | 1.0 | 0.71 | 8 | 15 | 1.8 | -6.4 | 6 | -9 | i | -1.1
COc1ccc(CC(=O)NNc2ncnc3c2cnn3C)cc1 | 0.7 | 0.71 | 16 | 7 | -2.5 | -0.5 | -5 | -4 | i | 7.5
COc1ccc(OC)c(C2=NOC(C(=O)NCCN3CCOCC3)C2)c1 (stereo not given) | -0.1 | 0.7 | · | · | · | -5.1 | 0 | -11 | · | ·
CC1(C)Cc2c(c(-c3ccccc3)nc3[nH][nH]c(=O)c23)CO1 | -0.2 | 0.72 | · | · | · | 3.7 | -3 | 22 | · | ·
Cc1cc(N)n(-c2ncnc3scc(-c4ccccc4)c23)n1 | -0.1 | 0.72 | · | · | · | -0.3 | -7 | -8 | · | ·
O=C(/C=C/c1c(F)cccc1Cl)N1CCc2ccccc2C1 | -0.5 | 0.68 | -38 | -57 | -4.9 | 0.5 | 0 | -10 | i | 2.7
O=C(COc1nsnc1N1CCOCC1)Nc1cccc(Cl)c1 | 0.9 | 0.68 | -11 | -24 | 0.5 | 0.7 | -1 | 8 | i | 7.6
COC(=O)c1ccc(NC(=O)c2ccccc2)o1 | -1.6 | 0.73 | · | · | · | 1.9 | -1 | -3 | · | ·
CCCCOc1ccc([N+](=O)[O-])cc1C(=O)O | 4.8 | 0.7 | 18 | 8 | 2.4 | 3.0 | -1 | -9 | i | -0.8

Only part of the results is shown, so the mix of outcomes need not match the whole.
